Sa growth inh – S. aureus growth inhibition at 42 and 30 °C, primary screen, LtaS inhibitor project, RN4220, two temperatures; OD600, 20 h, 42 °C; hits give low values; relative growth, % (concentration not given with the values); 0.53% of 170,000 active; AID 720641, 2013;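 active = growth at 42 °C up to 50% and 20 or more points under that at 30 °C, or under 10% at both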;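 also: 300 nL library stock went into each well; scaled to the means of positive and negative controls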
HCMV NEC inh – inhibitors of HCMV UL50-UL53 interaction, biochemical, HTRF; HCMV UL50-UL53 nuclear egress complex (human cytomegalovirus); 0.15% of 190,000 active; AID 1918969, 2023; inhibition, % (test concentration not listed); normalized percent inhibition;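 active = both replicates at 50% or more, plus weaker picks with an unusually low signal ratio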;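 also: stock transfer was 100 nL into about 20 µL; 0% = negative control wells and 100% = wells with untagged competitor protein; inactives centre near -12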
GIV-Gai inh – inhibitors of GIV peptide binding to Galpha-i3, primary screen, biochemical, fluorescence polarization, FITC-GIV GBA peptide, rat Galphai3. 0.42% of 210,000 active. percent of control (FP), % (concentration not given with the values). 90 min; hits give low values; scaled: aluminum fluoride 0%, vehicle 100%. Guanine nucleotide-binding protein G(i) subunit alpha-3 (Rattus norvegicus), P08753;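 active = replicate mean at 85% of control or lower, very high polarization wells dropped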;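 also: wells of about 15 µL received 100 nL stock; the first replicate is given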
Target sequence (P08753 whole entry, looked up): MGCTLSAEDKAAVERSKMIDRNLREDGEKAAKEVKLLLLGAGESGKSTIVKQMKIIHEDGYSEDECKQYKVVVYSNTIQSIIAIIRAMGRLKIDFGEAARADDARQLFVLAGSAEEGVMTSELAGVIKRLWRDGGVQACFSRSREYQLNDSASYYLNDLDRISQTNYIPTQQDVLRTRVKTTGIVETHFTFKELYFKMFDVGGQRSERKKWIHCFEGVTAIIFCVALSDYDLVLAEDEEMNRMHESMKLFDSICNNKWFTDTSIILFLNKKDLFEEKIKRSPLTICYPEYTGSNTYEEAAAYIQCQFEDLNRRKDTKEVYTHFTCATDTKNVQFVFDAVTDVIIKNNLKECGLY
Sa growth inh second temp – second read-out of Sa growth inh, no call of its own (marks repeat the call); relative growth, %; measured here: growth at 30 °C;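 optical density after 20 h as mean of two plates; 100% = untreated growth and lower means inhibition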
An asterisk follows results filed as active; / = not tested or not shown; & = joins results of further samples.

SMILES	Sa growth inh	Sa growth inh second temp	HCMV NEC inh	GIV-Gai inh
O=C(OCC(=O)N1CCC(Cc2ccccc2)CC1)c1ccc(O)cc1	93.1	91.8	-26.8	/
O=C(O)c1ccc(COc2ccc3c(c2)CCC3)o1	102.5	82.9	-36.4	/
CC1CCN(C(=O)CSc2nc3cc4c(cc3cc2C#N)OCO4)CC1	90.2	114.0	11.4	100.9
Cc1ccc(N2C(=O)c3ccccc3C2Nc2ccc(S(=O)(=O)N3CCCCCC3)cc2)nc1 (configuration not stated)	97.8	92.7	-3.5	110.9
CC(=Nc1ccc(N(C)C)cc1)C1=C(O)c2ccccc2C1=O	107.2	91.7	-27.3	/
CC(C)n1cnc(S(=O)(=O)N2CCCC(C(=O)N3CCN(c4ccccn4)CC3)C2)c1 (configuration not stated)	/	/	-4.7	109.6
CSc1ccc(C2OC(=O)C(=Cc3ccc(C)o3)C(=O)O2)cc1 (configuration not stated)	93.1	67.4	1.5	100.4
Cc1ccc(-n2c(C)cc(/C=C(\C#N)C(=O)Nc3ccc(C)c(C)c3)c2C)cc1	99.3	95.0	-11.4	95.8
O=C(NC1CCCC1)c1ccc(CSc2nc3ccncc3n2Cc2ccccc2F)cc1	109.3	85.3	-10.1	93.2
CCN1CCN(CCC(=O)Nc2ccc3c(c2)CCC3)CC1	93.9	79.0	-11.7	106.0
Cc1onc(-c2c(F)cccc2Cl)c1-c1nc(-c2ccccc2)no1	98.8	81.7	-20.3	105.8
Fc1ccc(-c2csc(NCC3CCCO3)n2)cc1 (configuration not stated)	86.7	82.8	-4.7	103.3
CCC(C)NC(=O)c1nn(-c2ccc(C)cc2)c(=O)n(C)c1=O (configuration not stated)	90.1	86.2	/	98.0
FC(F)(F)c1ccccc1NC(=S)N1CCCC1	99.8	88.7	-50.3	99.4
Cc1cn2c(=O)cc(COc3ccc(NC(=O)COc4ccccc4)cc3)nc2s1	107.5	101.2	20.7	110.5
CC12CN3CC(C)(CN(C1)C3(C)CSc1c[nH]c3ccccc13)C2=O (configuration not stated)	110.5	96.9	-9.4	98.8
COc1ccccc1NC(=O)Cn1c(=O)n(-c2cccc(C)c2)c(=O)c2c1c1cc(C)ccc1n2C	116.8	90.0	/	105.0
COc1cccc(/C=C/C(=O)C2C(=O)c3ccccc3C2=O)c1	56.3	41.6	/	102.3
CC1CN(C(=O)N2CCC(C(=O)NCc3ccccc3F)CC2)c2cc(Cl)ccc2O1 (configuration not stated)	105.2	107.7	3.0	106.5
COc1ccc(Nc2cc(C)nc3c(C)c(-c4ccc(OC)c(OC)c4)nn23)cc1	/	/	-7.2	108.4
CC(=O)NC(C)C1CC2CCC1C2 (configuration not stated)	90.0	92.3	-10.0	/
CCCCOc1ccc(NC(=O)Cn2nnnc2-c2ccccc2F)cc1	92.5	90.8	-12.5	95.2
CCOc1ccc(OCC)c(CC(C#N)C(=O)OC)c1 (configuration not stated)	100.5	90.9	-50.2	101.6
Cc1cccc(OCC(=O)N2CCC(c3nc4ccccc4o3)CC2)c1C	103.0	83.7	-31.3	103.1
CC(C)C(c1nnnn1Cc1ccccc1)N1CCC(C(N)=O)CC1 (configuration not stated)	129.3	95.2	-19.2	104.5
CC(Nc1nc2ccccc2n1C)c1cc(Cl)ccc1O (configuration not stated)	89.7	85.8	5.6	106.2
Cc1cc2cc(CO)c(=O)[nH]c2cc1C	/	/	6.3	110.1
c1ccc(-n2c(SCCN3CCOCC3)nnc2-c2ccncc2)cc1	96.5	96.8	-33.7	98.8
COc1ccc(S(=O)(=O)NC(c2nnc(-c3ccccc3)o2)c2ccccc2Cl)cc1OC (configuration not stated)	/	/	12.6	99.3
CCn1c(C)nc2cc(Cl)ccc21	96.9	102.4	-10.1	101.8

In the list so far, these have a furan ring, fused or not.
SMILES	Sa growth inh	Sa growth inh second temp	HCMV NEC inh	GIV-Gai inh
O=C(O)c1ccc(COc2ccc3c(c2)CCC3)o1	102.5	82.9	-36.4	/
CSc1ccc(C2OC(=O)C(=Cc3ccc(C)o3)C(=O)O2)cc1 (configuration not stated)	93.1	67.4	1.5	100.4

New compounds follow.
SMILES	Sa growth inh	Sa growth inh second temp	HCMV NEC inh	GIV-Gai inh
O=C(Cn1c2ccccc2c(=O)c2cc(Cl)ccc21)N1CCN(c2ccc([N+](=O)[O-])cc2)CC1	/	/	-8.4	103.7
O=C(Nc1nnc(S(=O)(=O)N2CCCCCC2)s1)c1ccc(Cl)cc1	99.4	77.0	-8.9	100.1
Cc1ccc(-c2nc3c4c5c(sc4ncn3n2)C(C)(C)NC(C)(C)C5)cc1	/	/	-9.4	98.5
CCc1ccc(NC(=O)CCNS(=O)(=O)c2ccc3c(c2)oc(=O)n3C)cc1	113.0	82.7	-20.5	108.8
Cc1[nH]c2ccccc2c1C(=O)Cn1nc2n(CC(C)C)c(=O)c3ccccc3n2c1=O	/	/	-15.7	102.0
CN(C)CCNC(=O)Cc1ccc(NC(=O)N2CCCCc3ccccc32)cc1	95.7	86.6	/	95.7
O=C(c1ccc2c(c1)N(Cc1c(F)cccc1Cl)C(=O)c1ccccc1S2)N1CCCC1	105.8	87.0	-11.2	108.2
CCc1nc(-c2ccc(OC)c(OC)c2)cc2cc(OC)c(OC)cc12	89.2	79.5	-9.0	98.8
CCn1c(NC(=O)c2cccs2)nc2ccccc21	/	/	-19.9	102.7
N#Cc1ccc(C=Nc2cccc(C#N)c2)cc1	106.4	83.5	2.7	/
Cc1ccc(C(=O)NCC(c2ccc3c(c2)OCO3)N2CCN(C)CC2)cc1C (configuration not stated)	92.0	86.7	/	97.2
Cc1nn(-c2ccc(N3CCCC3)nn2)c(C)c1CCC(=O)Nc1ccc(F)c(Cl)c1	73.7	75.4	/	94.4
COc1cc(C(=O)Oc2ccc3c(c2)OCO3)ccc1OCc1c(C)noc1C	76.0	83.6	-19.1	/
c1ccc2[nH]c(SCSc3nc4ccccc4[nH]3)nc2c1	108.5	88.7	4.1&-0.4	103.7
Cn1c(=O)c2c(-c3ccc(Cl)cc3)n(-c3ccccc3N)cc2n(C)c1=O	/	/	2.9	109.9
O=C1C2=C(NC(=S)NC2c2ccccc2)c2ccccc21 (configuration not stated)	93.5	90.3	-44.9	103.5
Cn1c(Cc2ccsc2)nnc1Sc1nc2ccc(Cl)cc2s1	90.5	80.6	-26.7	97.4
CCCc1cc(OC(=O)c2cccnc2Oc2ccccc2)n(C)n1	91.1	82.8	-12.2	96.6
CCn1nnnc1SCCSc1nnnn1CC	99.1	96.5	-14.4	98.0
CCc1nc2cc(Cl)c(Cl)cc2nc1CC	99.4	91.0	-24.7	103.8
COc1cc(CNC(=O)CSCc2nc3cccnc3n2C2CCCCC2)cc(OC)c1OC	107.2	105.2	/	111.3
O=C(NC1CCCCC1)c1cc2c(=O)[nH]c3ccccc3c2s1	111.7	89.9	/	111.0
CC(Sc1ncnc2sc3c(c12)CCC3)C(N)=O (configuration not stated)	84.5	94.0	-30.1	/
N#CCc1ccc(OC(=O)c2ccncc2)cc1	112.8	95.7	-3.7	106.0
Cn1c(=O)c2c(nc(NCCc3ccccc3)n2Cc2c(F)cccc2Cl)n(C)c1=O	/	/	-32.7	98.8
Cc1ncsc1CCSc1n[nH]c(=O)n1-c1ccccc1	110.9	91.2	-13.7	101.3
COc1ccc(-n2nc(C(=O)N3CCCC3)c3c4ccccc4n(C)c3c2=O)cc1	108.5	88.2	-6.1	96.0
Cc1nc2ccn(Cc3cccs3)c(=O)c2cc1C(=O)NCc1ccccc1	116.4	85.7	/	95.4
O=C(CSc1nccn1-c1ccc(Cl)cc1)NCc1ccco1	102.0	98.0	11.2	107.9
Cn1c(=O)c2c(nc(NCCc3ccccc3)n2Cc2ccccc2Br)n(C)c1=O	102.2	90.7	-48.8	102.7

Part of the list above in a different format.
SMILES: COc1cc(CNC(=O)CSCc2nc3cccnc3n2C2CCCCC2)cc(OC)c1OC
  Sa growth inh: 107.2
  Sa growth inh second temp: 105.2
  HCMV NEC inh: /
  GIV-Gai inh: 111.3

SMILES: O=C(NC1CCCCC1)c1cc2c(=O)[nH]c3ccccc3c2s1
  Sa growth inh: 111.7
  Sa growth inh second temp: 89.9
  HCMV NEC inh: /
  GIV-Gai inh: 111.0

(further entries)
SMILES	Sa growth inh	Sa growth inh second temp	HCMV NEC inh	GIV-Gai inh
Cn1c(=O)c2cc(S(=O)(=O)NC(Cc3ccccc3)C(=O)Nc3ccc(F)cc3)ccc2n(C)c1=O (configuration not stated)	100.8	89.6	-11.8	105.2
Cc1ccc2[nH]cc(CCNC(=O)CC3CCN(C(=O)C4CCCCC4)CC3)c2c1	/	/	-17.6	98.5
COC(=O)c1cc(=O)n(C)c(=Nc2ccc(F)c(F)c2)s1	78.3	65.7	-24.8	98.3
Cc1c(C(=O)NCc2ccc(F)cc2)oc2ccc(S(=O)(=O)N3CCCCC3)cc12	102.6	95.0	/	98.1
Cc1ccc(CNC(=O)CN2C(=O)CCc3cc(S(=O)(=O)N4CCCCC4)ccc32)cc1	99.5	90.5	/	98.1
CCOc1ccc(/C=C2/C(=O)N(C)C(=S)N2CC(=O)OC)c(OCC)c1	83.2	93.4	/	117.1
COCCn1nnc2cc(S(=O)(=O)N3CCCCC3C(=O)Nc3cccc(F)c3)ccc21 (configuration not stated)	/	/	-7.2	114.5
O=C(C1CCCN(S(=O)(=O)c2ccc(Br)s2)C1)N1CCN(c2ccccc2)CC1 (configuration not stated)	85.5	70.1	-10.4	99.5
CCCN1CCCc2cc(CN(CCCN3CCOCC3)C(=O)Nc3ccc(CC)cc3)ccc21	111.8	100.2	/	107.6
c1cncc(-c2nc(-c3ccco3)cs2)c1	99.8	91.2	-51.9	/
OC1(C(F)(F)F)CC(c2cc3ccccc3o2)=NN1 (configuration not stated)	89.2	84.9	-67.2	101.1
Cc1sc(-c2ccno2)cc1S(=O)(=O)NCCC1=CCCCC1	/	/	-17.8	107.7
CCCC12CN3CC(CCC)(CN(C1)C3c1ccc3c(c1)OCO3)C2=O (configuration not stated)	110.3	89.0	-13.9	101.3
CCOC(=O)C1=NN(C(=O)c2ccc(Cl)cc2)C(O)(C(C)(C)C)C1 (configuration not stated)	/	/	-11.5	105.3
CC(=O)N1CCC(C(=O)c2ccc(F)cc2F)CC1	99.9	86.7	-2.6	95.9
COc1ccc(Cn2c(=O)[nH]c3cc(C(=O)NC4CCCC4)ccc3c2=O)cc1	90.3	92.4	-21.9	101.6
Cc1cccc(Oc2coc3cc(O)ccc3c2=O)c1	86.3	73.7	-23.8	102.8
Cc1c(C(=O)N2CCC(C#N)CC2)sc2ncnc(N3CCc4ccccc4C3)c12	/	/	-5.9	103.6
CC(=O)c1sc(NC(=O)c2c(-c3ccccc3)c(-c3ccccc3)nn(C)c2=O)nc1C	91.7	85.0	-41.6	101.2
O=C(NCC1CCCO1)c1ccc(Cn2c(=S)[nH]c3ccccc3c2=O)cc1 (configuration not stated)	83.7	87.4	/	100.7
O=C(NN1CC(=O)N(c2ccccn2)C1=O)C(c1ccccc1)c1ccccc1	117.4	88.8	-5.1	100.9
COc1ccc2[nH]cc(CCNC(=O)Nc3ccccc3C)c2c1	92.0	87.1	-20.0	100.5
COc1ccc(/C=C/C(=O)Nc2sc3c(c2C(N)=O)CCCC3)cc1	104.1	94.4	-18.5	105.6
CCCNC(=O)CCSc1nc(-c2ccc3c(c2)OCO3)cc(C(F)(F)F)n1	83.7	88.4	-36.6	94.8
COC(=O)c1ccc(NC(=O)C2=Cc3cc(C)ccc3OC=C2)cc1	/	/	-23.4	96.2
N#CCSC1=Nc2ccccc2C2=NC(CCC(=O)NCc3ccccc3)C(=O)N12 (configuration not stated)	120.8	95.8	/	93.8

Compound profiles, as listed above. Screens in order: Sa growth inh, Sa growth inh second temp, HCMV NEC inh, GIV-Gai inh
COc1ccc(/C=C/C(=O)Nc2sc3c(c2C(N)=O)CCCC3)cc1 in the list: 104.1, 94.4, -18.5, 105.6
COc1ccc2[nH]cc(CCNC(=O)Nc3ccccc3C)c2c1 in the list: 92.0, 87.1, -20.0, 100.5
N#CCSC1=Nc2ccccc2C2=NC(CCC(=O)NCc3ccccc3)C(=O)N12 (configuration not stated) in the list: 120.8, 95.8, /, 93.8
COC(=O)c1ccc(NC(=O)C2=Cc3cc(C)ccc3OC=C2)cc1 in the list: /, /, -23.4, 96.2
O=C(NN1CC(=O)N(c2ccccn2)C1=O)C(c1ccccc1)c1ccccc1 in the list: 117.4, 88.8, -5.1, 100.9
